Assay outcomes: PubChem, National Center for Advancing Translational Sciences (NCATS)
Cruzain Triton = inhibitors of Trypanosoma cruzi cruzain with detergent | P25779 | purified cruzain, Z-FR-AMC fluorescence, 0.01% Triton | Potency, µM, inactives show max response, negative = inhibition, hits mostly inhibitors | actives 0.43% (n = 200,000) | AID 1478;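 further: plate controls were neutral wells for no effect and buffer without enzyme for full effect; nearly all actives have a fitted effect of over 40% in size; top concentration of the series not given in the record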
Target sequence (P25779 123-467 limits assumed): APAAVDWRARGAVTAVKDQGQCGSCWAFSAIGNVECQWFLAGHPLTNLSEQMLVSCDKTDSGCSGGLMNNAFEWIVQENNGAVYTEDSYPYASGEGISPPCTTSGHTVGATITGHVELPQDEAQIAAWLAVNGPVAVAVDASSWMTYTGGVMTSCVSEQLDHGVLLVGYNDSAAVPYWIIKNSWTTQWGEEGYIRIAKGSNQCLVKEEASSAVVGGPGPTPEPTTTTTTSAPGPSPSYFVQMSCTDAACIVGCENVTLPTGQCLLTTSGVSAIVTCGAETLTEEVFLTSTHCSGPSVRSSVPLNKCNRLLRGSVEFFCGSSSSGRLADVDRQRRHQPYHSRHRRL
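Purified cruzain (1.5 nM final) was preincubated with compounds for 15 min at room temperature in 100 mM sodium acetate pH 5.5, 5 mM DTT, 0.01% Triton X-100. Reaction started with 2 uM Z-FR-AMC; AMC fluorescence change over 60 s gave activity.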
SARS PLP yeast = inhibitors of SARS-CoV papain-like protease in yeast; actives 0.19% (n = 330,000); S. cerevisiae expressing SARS-CoV PLpro, growth rescue; control for the full effect not named in the record; Potency, µM (doses to about 32.9 µM), inactives show at the top dose activity, positive = growth rescue; AID 485353; active means well fitted rising curve with a large enough effect; inconclusive means small, poorly fitted or top-dose-only effect; inactive means no such curve, though single readings can be large or run the other way; further: 0% is about no effect; nearly all actives have a fitted effect of over 55% in size; growth read by luminescence after 48 h
RE007 growth inh = less growth of the S. pombe RE007 Vpr strain; Potency, µM (top dose mostly 92.2 µM), inactives show at the top dose activity change, negative = less growth; AID 651644; S. pombe RE007 Vpr strain, BacTiter-Glo ATP luminescence, 24 h; control for the full effect not named in the record; actives 0.21% (n = 360,000); active = well fitted falling curve with a large enough effect; inconclusive = small, poorly fitted or top-dose-only effect; inactive = no such curve, though single readings can be large or run the other way;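 further: on the % scale 0 is the no-effect control and ±100 the full control effect; nearly all actives have a fitted effect of over 50% in size; the assay follows cell death caused by Vpr and the record does not say whether a fall means rescue or toxicity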
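Fission yeast RE007 carrying one integrated HIV-1 vpr copy, seeded at OD 0.01 in PMG+AL medium with 23 nL pinned compound. Grown 24 h at 30 degrees; viability read by BacTiter-Glo luminescence after 5 min.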
NS1 inh = influenza NS1 inhibition; actives 0.4% (n = 270,000); Potency, µM (top dose mostly 46.1 µM), for inactives: at the top dose activity, positive = more growth; S. cerevisiae slowed by influenza A NS1, growth recovery by OD600; active means well fitted rising curve with a large enough effect; inconclusive means small, poorly fitted or top-dose-only effect; inactive means no such curve, though single readings can be large or run the other way; further: nearly all actives have a fitted effect of over 50% in size
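Recovery from NS1-induced slow growth read by OD600 in budding yeast switched to galactose assay medium (pH 6.0, -URA) at 1:100 dilution. Compound 23 nl per well; the matching strain lacking NS1 serves as control.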
Cruzain noTriton = blocks cruzain activity in detergent-free assay | P25779 | purified cruzain, Z-FR-AMC fluorescence, no detergent | Potency, µM, inactives show max response, negative = inhibition, usual class: inhibitors | actives 2.3% (n = 200,000);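 further: plate controls were enzyme without inhibitor for no effect and buffer without enzyme for full effect; nearly all actives have a fitted effect of over 40% in size; top concentration of the series not given in the record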
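Detergent-free condition (0.00005% Triton X-100) in acetate buffer pH 5.5 with DTT. 1.5 nM enzyme and compound were pre-mixed 15 min, then 2 uM Z-FR-AMC substrate added; reaction progress from fluorescence change between first and third reads (60 s).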
StopGo reporter = FMDV 2A StopGo reporter, luciferase signal; human cells with a luciferase reporter of 2A StopGo recoding; control for the full effect not named in the record; Potency, µM (highest dose often 57.9 µM), for inactives: at the highest dose signal change, negative = less light; actives 1.2% (n = 410,000); AID 1159524; active = well fitted falling curve with a large enough effect; inconclusive = small, poorly fitted or top-dose-only effect; inactive = no such curve, though single readings can be large or run the other way; tested in HEK293T cells; further: on the % scale 0 is the no-effect control and ±100 the full control effect; nearly all actives have a fitted effect of over 45% in size; luciferase light after 4 h
LASV entry inh = Lassa virus entry inhibition; Lassa virus pseudotype entry inhibition, cell reporter; control for the full effect not named in the record; Potency, µM (highest dose often 37.9 µM), for inactives: at the top dose activity change, negative = inhibition, hits mostly inhibitors; actives 1.2% (n = 300,000); active means well fitted inhibition curve with a large enough effect; inconclusive means small, poorly fitted or top-dose-only effect, or effect the other way; inactive means flat fitted curve, though single readings scatter; tested in HEK293 cells; further: on the % scale 0 is the no-effect control and ±100 the full control effect; nearly all actives have a fitted effect of over 50% in size; luciferase read-out
MARV entry inh = inhibitors of Marburg virus binding or cell entry; Marburg virus pseudotyped entry inhibition, cell reporter; control for the full effect not named in the record; about a third of the inactives were read at about 46 µM; Potency, µM (series often up to 37.8 µM), for inactives: at the highest dose activity change, negative = inhibition, hits mostly inhibitors; actives 1.8% (n = 300,000); AID 540276; active = well fitted inhibition curve with a large enough effect; inconclusive = small, poorly fitted or top-dose-only effect, or effect the other way; inactive = flat fitted curve, though single readings scatter; tested in HEK293 cells; about a fifth of its hits are not listed in these tables; further: on the % scale 0 is the no-effect control and ±100 the full control effect; luciferase read-out
* marks the source's active call; other numbers are inactive results; ? = inconclusive; . = not tested or not shown; & = joins results of further samples; [ ] = dose if it differs, or a comment. Unless noted, the call rests on the fitted dose curve; in most records, active means well fitted curve in the direction sought with a large enough effect; inconclusive means small, poorly fitted or top-dose-only effect, or another doubt; inactive means no such curve, though single readings can be large; an effect the other way counts as inactive or inconclusive. Potency means the concentration at half of the fitted maximal effect. An unsorted share of the library; any-hit rate near 4.7%.

SMILES	Cruzain Triton	SARS PLP yeast	RE007 growth inh	NS1 inh	Cruzain noTriton	StopGo reporter	LASV entry inh	MARV entry inh
O=C1C(=O)N(CCN2CCOCC2)C(c2ccccn2)/C1=C(/O)c1ccc(F)cc1 (centres undefined)	-8.6%	2.1%	-8.9%	4.7%	14.7%	12.2%	8.4%	1.9%
CCSc1cnn(-c2ccccc2)c(=O)c1SCC	-10.1%	-3.0%	12.1%	-6.1%	1.4%	.	26.7%	6.3%
N#Cc1c(NC(=O)COC(=O)C2CC3C=CC2C3)oc(-c2ccccc2)c1-c1ccccc1 (centres undefined)	-6.7%	-8.9%	5.6%	?	7.94µM*	-23.1%	-23.9%	-4.5%&-22.0%
Cc1cc2oc(=O)c(CC(=O)NCCc3ccccc3)c(C)c2c2occ(C(C)(C)C)c12	-7.8%	.	.	.	?	-6.4%	-4.2%[46.1 µM]	19.7%[46.1 µM]
CC(=O)Nc1cc[n+](CC(=O)c2ccc(Cl)cc2)cc1	.	0.9%	16.3%	0.7%	.	18.0%	1.1%[46.1 µM]	?
CCN(CC)c1ccc(N2C(=NC(=O)C3CC3)SC3CS(=O)(=O)CC32)cc1 (centres undefined)	.	2.1%	2.8%	-12.8%	.	1.5%	-0.9%[46.1 µM]	7.8%[46.1 µM]
Cc1sc(NC(=O)C2CC=CCC2C(=O)O)c(C(=O)OC(C)C)c1C (centres undefined)	-3.3%	2.3%	27.1%	13.8%	-0.5%	-19.4%	3.4%	12.9%
O=C(CN1C(=O)C(=O)c2ccccc21)OCN1C(=O)c2ccccc2C1=O	.	-2.0%	15.1%	2.5%	.	-6.9%	-10.3%	0.0%[46.1 µM]
Cc1noc(C)c1S(=O)(=O)N1CCCC(C(=O)N2CCC(C)CC2)C1 (centres undefined)	2.7%	-3.5%	0.0%	-3.4%	9.4%	-22.4%	-1.6%	0.1%
CN(Cc1ccccc1)C(=O)CCn1c(=O)oc2ccccc21	7.4%	12.9%	26.7%	-3.1%	-15.0%	-13.4%	.	.
O=C(N/N=C/c1ccc(Cl)cc1)c1n[nH]c2c1CCCC2	.	2.1%	12.7%	1.9%	.	66.4%[activator]	?	?
Clc1cccc(OCCOCCN2CCNCC2)c1Cl	.	.	1.2%	.	.	-18.9%	3.4%	12.6µM*
Cc1c(Cl)cccc1NC(=O)C1CCCN(C(=O)c2cnn(-c3ccccc3)c2-n2cccc2)C1 (centres undefined)	-8.9%	.	.	.	17.7%	?	?	?
CSc1ccccc1C(=O)Nc1ccccc1C	.	0.7%	20.4%	-1.2%	.	-1.7%	-5.4%	-7.4%[46.1 µM]
O=C(O)CCC(=O)Nc1ccc(Br)c(Cl)c1	5.1%	1.0%	3.4%	22.1%	1.0%	2.9%	-2.2%	?
CCN(CC(=O)Nc1c(F)cccc1F)C(=O)c1cccnc1SC	.	-2.0%	-0.3%	-2.8%	.	-11.5%	?	-0.5%
O=C(NCc1cccs1)C1CCCN1C(=O)Nc1cccc(Cl)c1 (centres undefined)	.	2.6%	4.1%	.	.	-18.8%	-14.1%	5.0%[46.1 µM]
Cc1cc(N2CCCC2=O)cc(C)c1S(N)(=O)=O	-0.6%	-1.5%	-2.1%	?	-1.8%	-20.4%	4.7%	-11.3%
CC(=O)OC(C(=O)NC1CCCCC1)c1ccc(Cl)cc1 (centres undefined)	-4.7%	-3.7%	-9.8%	-0.1%	-0.7%	13.2%	-1.0%	-17.8%
CCOC(=O)N1CCN(C(=O)c2ccc3c(c2)NC(=O)/C(=C\c2cccc(C)c2)S3)CC1	.	10.9%	6.1%	4.2%	.	?	.	.

Pulled by structure from the entries so far, two records:
SMILES	Cruzain Triton	SARS PLP yeast	RE007 growth inh	NS1 inh	Cruzain noTriton	StopGo reporter	LASV entry inh	MARV entry inh
Cc1cc(N2CCCC2=O)cc(C)c1S(N)(=O)=O	-0.6%	-1.5%	-2.1%	?	-1.8%	-20.4%	4.7%	-11.3%
CCN(CC)c1ccc(N2C(=NC(=O)C3CC3)SC3CS(=O)(=O)CC32)cc1 (centres undefined)	.	2.1%	2.8%	-12.8%	.	1.5%	-0.9%[46.1 µM]	7.8%[46.1 µM]

(listing goes on)
SMILES	Cruzain Triton	SARS PLP yeast	RE007 growth inh	NS1 inh	Cruzain noTriton	StopGo reporter	LASV entry inh	MARV entry inh
O=C1C(=Cc2cccs2)Oc2ccccc21	.	.	-19.4%	.	.	45.0%[activator]	?	12.3%[46.1 µM]
CNc1c(NS(=O)(=O)c2ccc(Cl)cc2)c(=O)oc2ccccc12	.	1.6%	6.2%	-9.2%	.	-6.2%	-0.4%[46.1 µM]	11.7%[46.1 µM]
O=C(NNC(=O)c1ccc(O)c(Cl)c1)c1cccc(S(=O)(=O)N2CCOCC2)c1	.	-16.6%	6.8%	.	.	-0.5%	-19.7%	10µM*
Cc1ccc(C)c(NC(=O)Nn2cnnc2)c1	.	9.4%	-9.0%	-4.9%	.	-18.3%	.	.
CC1CC(C)CN(CCCNC(=O)CN2C(=O)c3cccnc3Oc3ccccc32)C1 (centres undefined)	.	-0.1%	1.0%	-6.1%	.	-0.3%	16.2%[46.1 µM]	?
O=C(Nc1ccccc1)C1C2/C=C\CCCCC21 (centres undefined)	.	-0.2%	-26.5%	-0.2%	.	68.4%[activator]	.	.
Cc1ccc(C(=O)Oc2ccc(N3C(=O)CCC3=O)c(C)c2)cc1	.	-0.8%	12.3%	1.8%	.	4.4%	3.6%[46.1 µM]	?
O=C(Cc1ccc(Cl)cc1)NC(=S)Nc1ccccc1N1CCOCC1	-5.9%	-20.0%	9.6%	2.3%	-23.0%	-8.1%	-10.0%	?
COc1ccc(/C=N/NC(=O)c2cc(-c3cccc(C)c3)nc3ccccc23)cc1O	.	.	-6.8%	.	.	10.7%	7.08µM*	?
COc1ccccc1N1CCN(C(=O)Cn2c(=O)[nH]c3ccsc3c2=O)CC1	1.2%	-10.9%	9.1%	0.5%	4.1%	7.4%	11.5%	-10.5%
CC(Sc1nc2ccccc2c(=O)n1C)C(=O)NC1CCCCC1C (centres undefined)	.	2.2%	13.8%	.	.	?	14.9%	-1.4%[46.1 µM]
COc1ccccc1/C=C/c1nc(S(=O)(=O)c2ccccc2)c(N2CCC(C(N)=O)CC2)o1	.	5.0%	-2.5%	-1.9%	.	1.2%	.	.
Cc1cccc(OCC(=O)Nc2ccc3nc(SCc4ccccc4)sc3c2)c1	-0.9%	.	.	.	6.8%	0.5%	2.8%[46.1 µM]	-13.5%[46.1 µM]
CC(C)COC(=O)N1CCCC1C(=O)Nc1nccs1 (centres undefined)	-4.8%	3.6%	25.5%	-0.3%	-9.6%	-1.2%	?	-4.0%
COc1ccc(C(=O)COC(=O)CN2C(=O)C3C4CCC(C4)C3C2=O)cc1 (centres undefined)	.	0.7%	-20.5%	-3.7%	.	3.9%	?	3.1%[46.1 µM]
O=C(NCc1ccccc1)c1ccc(C(=O)N(C2CCCCC2)C2CCCCC2)cc1	-5.1%	4.7%	-15.7%	4.4%	-4.2%	0.0%	?	?
Cc1ccc(NC(=S)Nc2ccc(Br)cc2)cc1	3.6%	-1.1%	-4.3%	-15.5%	?	60.4%[activator]	3.8%	?
CC1=CC(C)(C)N2C(=O)C3(C(C#N)=C(N)OC4=C3C(=O)CC(C)(C)C4)c3cc(C)cc1c32 (centres undefined)	-4.9%	2.1%	-22.1%	-4.3%	?	?	-10.4%	-14.3%
CSc1cccc(NC(=S)N(CCC(C)C)C2CCN(C(C)=O)CC2)c1	.	-7.4%	4.5%	.	.	-5.8%	?	-18.1%[46.1 µM]
S=c1[nH]nc(-c2cc(-c3ccsc3)n[nH]2)n1-c1cccc2ccccc12	.	0.4%	8.4%	.	.	-3.7%	-15.1%[46.1 µM]	5.2%[46.1 µM]
CC1(c2cccc3ccccc23)NC(=O)N(CC(=O)NC2CCS(=O)(=O)C2)C1=O (centres undefined)	-1.2%	12.3%	0.1%	-9.0%	-1.7%	-13.1%	17.4%	24.8%
CSCC[C@H](NC(=O)[C@H]1CC[C@H](CNC(=O)[C@@H]2CCCN2)CC1)C(=O)O	.	-0.4%	-8.7%	1.4%	.	-8.5%	.	.
CCn1cc(C(=O)NC2CCCCCC2)c(=O)c2ccc(C)nc21	.	0.2%	3.9%	-1.5%	.	1.6%	.	.
O=C(Cn1ccc([N+](=O)[O-])n1)Nc1ccccn1	.	-0.1%	27.3%	0.7%	.	-1.8%	.	.
O=C(c1cccc(S(=O)(=O)N2CCc3ccccc32)c1)N1CCN(c2ccccn2)CC1	.	1.8%	3.6%	.	.	?	?	?
CCOC(=O)C1=C(CN2CCN(C(=O)c3ccco3)CC2)NC(=O)NC1c1ccc(OC)cc1 (centres undefined)	.	5.6%	16.3%	-9.5%	.	-0.6%	.	.
COC(=O)CNC(c1ccccc1)c1cc(Br)ccc1NC(=O)OCc1ccccc1 (centres undefined)	1.9%	-7.9%	-5.1%	5.2%	-14.3%	-13.0%	?	?
FC(F)(F)C(F)(F)C(F)(F)c1nnc2ccc(N3CCOCC3)nn12	-2.0%	-2.2%	-23.0%	-13.8%	24.8%	-15.2%	-19.9%	-10.7%[46.1 µM]
COc1ccc(C(=O)NNC2=Nc3cccc4cccc2c34)cc1	.	1.6%	-7.5%	-1.9%	.	-3.8%	.	-4.7%[46.1 µM]
COc1ccc(C(CNC(=O)C(C)(C)Oc2ccc(Cl)cc2)N2CCCCC2)cc1 (centres undefined)	.	0.7%	-27.4%	-5.2%	.	0.0%	-22.2%	?
O=C(COC(=O)/C=C/c1ccco1)NC1CCCCC1	.	-6.1%	-29.1%	.	.	-15.2%	-7.9%	?
COC(=O)Nc1ccc(S(=O)(=O)N2CCCC(C(=O)N3CC(C)OC(C)C3)C2)cc1 (centres undefined)	.	0.3%	3.4%	-2.4%	.	-8.8%	.	.
Nc1cc(C(=O)O)ccc1N1CCCCCC1	3.1%	2.0%	4.5%	10.9%[9.22 µM]	-10.8%	.	-12.0%	-9.3%
CCc1cccc(C)c1NC(=O)CN1CCCN(Cc2ccccc2Cl)S1(=O)=O	-4.3%	.	.	.	-2.5%	-18.7%	-8.1%[46.1 µM]	.
